Screens deposited in PubChem by National Center for Advancing Translational Sciences (NCATS).
Menin-MLL FL inh – displaces fluorescein MLL peptide from human menin | FP activity change, % at 61.4 µM | AID 1766 | Fluorescence polarization, fluorescein-MLL peptide displacement from menin | 290,000 tested, under 10 active; inconclusive = falling polarisation curve, or a change in total fluorescence; inactive = total fluorescence flat and polarisation flat or rising; no compound was filed as active; the % refers to the polarisation; negative = inhibition;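 further: % of control where 0% means no effect; inhibitors lower the polarisation; unlabelled MLL peptide was the positive control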
gsp ag – activates gsp, the McCune-Albright syndrome mutation; 340,000 tested, 0.13% active; Potency, µM (highest dose often 76.9 µM), for the others: at the highest dose activation (cAMP increase), usual class: activators; gsp mutant cells, cAMP HTRF, 30 min; control for the full effect not named in the record; active = well fitted activation curve with a large enough effect; inconclusive = small, poorly fitted or top-dose-only effect, or another doubt; inactive = no such curve, though single readings can be large or run the other way; cell line not stated here;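 further: phosphodiesterase inhibitor Ro 20-1724 added with compounds to block cAMP breakdown; potency means the concentration at half of the fitted maximal effect; nearly all actives have a fitted effect of over 60% in size; about a fifth of the inactives were tested at one dose only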
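Cells in DMEM/10% FBS with G418 were pretreated with compounds in DMSO plus […] (300 uM stock) for 30 min at 37C. cAMP was measured by HTRF (cAMP-d2 plus anti-cAMP antibody-K) after 30 min at room temperature.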
gsp antag – gsp mutant antagonism | gsp-mutant cells, cAMP HTRF, 30 min; control for the full effect not named in the record | Potency, µM (highest dose often 76.9 µM), inactives show top-dose activity change, negative = inhibition, hits mostly inhibitors | 340,000 tested, 0.4% active; active = falling curve of any shape with a large fitted effect; inconclusive = falling curve, mostly with a smaller effect; inactive = flat or rising curve; cell line not stated here;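 further: intracellular cAMP measured with PDE inhibitor Ro 20-1724 present during compound exposure; potency means the concentration at half of the fitted maximal effect; on the % scale 0 is the no-effect control and ±100 the full control effect; nearly all actives have a fitted effect of over 65% in size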
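Measurement of cellular cAMP by homogeneous time-resolved fluorescence following a 30 min compound exposure at 37C. The PDE inhibitor […] was present throughout; the assay buffer was DPBS with 0.05% BSA and 0.005% Tween 20.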
CtBP-E1A inh – CtBP/E1A binding inhibition; AlphaScreen GST-E1A/His-CtBP binding, 1536-well; stronger effect = lower value; control for the full effect not named in the record; activity change, % (no concentration beside the values); 340,000 tested, 0.49% active; in the data active means activity change below about -65%; inconclusive means about -30% to -65%; inactive means above about -30%; further: on the % scale 0 is the no-effect control and ±100 the full control effect; compound concentration not given in the record
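AlphaScreen with 125 nM GST-E1A and 125 nM His-CtBP (5X stocks) in Tris pH 8.0, 300 mM NaCl, BSA, Tween 20, TCEP. Compounds preincubated 2 h at 37 deg C, then glutathione donor/nickel acceptor beads added for 1 h at 37 deg C in dark.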
TRPV1 PAM – potentiators of human vanilloid receptor 1 (TRPV1); Q8NER1; TRPV1-expressing cells, Fluo-8 calcium influx, capsaicin EC20 potentiation; host cell line not named in the record; control for the full effect not named in the record; potentiation, % at 8.33 µM; 320,000 tested, 0.02% active; AID 540277; active means potentiation above 80%; inconclusive means 30% to 80%; inactive means below 30%; further: 0% is about no effect
Target sequence (Q8NER1 whole entry, looked up): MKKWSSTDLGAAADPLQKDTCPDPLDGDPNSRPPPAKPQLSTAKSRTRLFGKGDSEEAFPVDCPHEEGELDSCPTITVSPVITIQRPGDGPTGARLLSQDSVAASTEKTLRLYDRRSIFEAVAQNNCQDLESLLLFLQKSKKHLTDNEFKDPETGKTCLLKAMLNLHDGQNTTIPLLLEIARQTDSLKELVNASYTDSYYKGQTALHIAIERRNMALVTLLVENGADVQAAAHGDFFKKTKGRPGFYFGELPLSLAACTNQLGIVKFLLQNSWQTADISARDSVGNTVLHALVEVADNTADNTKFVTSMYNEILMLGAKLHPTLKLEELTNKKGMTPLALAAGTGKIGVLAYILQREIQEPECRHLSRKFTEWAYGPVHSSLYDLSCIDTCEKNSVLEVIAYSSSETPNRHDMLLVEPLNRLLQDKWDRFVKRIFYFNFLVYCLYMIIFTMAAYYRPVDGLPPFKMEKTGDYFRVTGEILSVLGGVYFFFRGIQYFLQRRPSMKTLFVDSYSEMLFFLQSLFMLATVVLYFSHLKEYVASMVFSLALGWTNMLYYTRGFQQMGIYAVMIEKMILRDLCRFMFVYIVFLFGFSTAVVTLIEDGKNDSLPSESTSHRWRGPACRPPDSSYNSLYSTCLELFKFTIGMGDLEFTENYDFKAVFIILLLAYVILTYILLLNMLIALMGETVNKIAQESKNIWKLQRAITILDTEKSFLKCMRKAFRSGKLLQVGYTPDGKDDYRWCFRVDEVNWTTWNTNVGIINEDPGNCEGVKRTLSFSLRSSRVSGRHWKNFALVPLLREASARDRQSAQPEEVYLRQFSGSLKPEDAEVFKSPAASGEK
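Fluo-8 calcium influx in TRPV1-expressing cells, kinetic read (ex 480/em 520 nm). Compound added and read 3 min for agonist activity, followed by capsaicin at EC20 final and 2 min further read for enhancement.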
Sfp PPTase inh – blocks B. subtilis Sfp PPTase activity. Q9F4F7. Biochemical Sfp PPTase activity, qHTS. Potency, µM, inactives show max response, negative = inhibition, hits mostly inhibitors. 310,000 tested, 3.5% active. AID 1490; active means well fitted inhibition curve with a large enough effect; inconclusive means small, poorly fitted or top-dose-only effect, or another doubt; inactive means no such curve, though single readings can be large or run the other way;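 further: the enzyme is Sfp with the accession as filed and its product quenches rhodamine fluorescence; potency means the concentration at half of the fitted maximal effect; 0% = enzyme reaction without inhibitor and -100% = no enzyme wells; top concentration of the series not given in the record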
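Buffer: 50 mM Hepes-Na pH 7.6, 10 mM MgCl2, 0.01% Nonidet P-40, 0.01% BSA. Enzyme 15 nM, pre-exposed to compound 15 min; substrates then added and fluorescence change tracked over 30 min.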
ClpP mod – qHTS Assay for Activators of ClpP; ATP-dependent Clp protease proteolytic subunit (Bacillus subtilis (strain 168)), P80244; purified B. subtilis ClpP, FRET peptide cleavage, 20 min; Potency, µM (titrated, usually from 57.5 µM), for inactives: top-dose activity change, negative = active; 340,000 tested, 1.9% active; AID 651965, 2013; active = well fitted falling curve with a large enough effect; inconclusive = small, poorly fitted or top-dose-only effect; inactive = no such curve, though single readings can be large or run the other way; further: potency means the concentration at half of the fitted maximal effect; the source files actives as falling curves though it sought activators and does not explain the sign; nearly all actives have a fitted effect of over 65% in size; many hits overshoot -100%
Target sequence (P80244 whole entry, looked up): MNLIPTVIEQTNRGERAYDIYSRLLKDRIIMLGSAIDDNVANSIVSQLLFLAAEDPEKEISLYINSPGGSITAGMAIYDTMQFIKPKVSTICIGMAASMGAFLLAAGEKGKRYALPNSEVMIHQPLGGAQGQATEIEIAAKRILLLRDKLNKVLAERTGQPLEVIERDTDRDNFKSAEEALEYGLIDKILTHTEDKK
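ClpP 10 microg/mL final, pH 8 Tris/KCl buffer with BSA, glycerol, Tween-20; compound pinned in; FRET-FV substrate; RT 20 min; Ex320/Em430; ΔFRET vs ADEP 5.8 microM, DMSO, no enzyme.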
The depositor's hits bear a star; ? = inconclusive; . = no result given; & = joins results of further samples; [ ] = remark or other dose.

Preview, 11 compounds:
smiles	Menin-MLL FL inh	gsp ag	gsp antag	CtBP-E1A inh	TRPV1 PAM	Sfp PPTase inh	ClpP mod
CCN(CC)CCOC(=O)c1ccc(N/C=C(/C#N)c2nc(-c3ccc4c(c3)OCO4)cs2)cc1	3.5	-1%[15.4 µM]	3%	-5	11	20µM*	.
C[C@H](CO)N1C[C@H](C)[C@@H](CN(C)S(=O)(=O)c2cn(C)cn2)Oc2c(NC(=O)Nc3ccc(C(F)(F)F)cc3)cccc2C1=O	.	-22%	-11%	-24	.	.	-3.0%
COC(=O)CNC(=O)CSc1nc2sc(-c3ccccc3)cc2c(=O)n1-c1ccccc1	.	18%	-16%	-6	.	.	?
CC1=Nc2cc(C(=O)NCCN3CCOCC3)ccc2Sc2c(C)ccc(C)c21	1.4	-7%	0%	.	-5	-1%	0.2%
Oc1ccc(C[C@H]2CNC(=S)N2CC2CCCN2C[C@H](Cc2ccc(O)cc2)N2C[C@H](Cc3ccccc3)N(CCc3ccccc3)C2=S)cc1 (some centres undefined)	.	.	-1%	-10	.	.	-0.9%
COc1ccc(/C=N/NC(=O)c2ccco2)cc1Cn1nc(C)c([N+](=O)[O-])c1C	1.5	-8%[15.4 µM]	-22%	0	-3	14%	0.1%
COc1ccc(-c2csc(NC(=O)C(CC(=O)O)N3CCOCC3)n2)cc1 (centres undefined)	-13	4%	-2%	-3	7	8%	.
CC(=O)c1ccc(OCc2ccccc2)c(C)c1O	-0.1[11.7 µM]	21%	-7%	38	-4	-11%&-22%	1.7%
O=C(NCc1ccccc1)c1ccccc1-c1nc2ccccc2[nH]1	-1.4	-1%[15.4 µM]	.	-9	-14	2%	.
CC(=O)Nc1ccc(Nc2c([N+](=O)[O-])cc(S(C)(=O)=O)cc2[N+](=O)[O-])cc1	1.0	-3%[15.4 µM]	6%	-10	-3	5%	-1.3%
CC(=O)Nc1ccc(Nc2ccc(N3C(=O)CCCC3=O)cc2[N+](=O)[O-])cc1	-0.4	0%	7%	-17	-3	-18%	0.8%

All compounds of this part, from the start:
smiles	Menin-MLL FL inh	gsp ag	gsp antag	CtBP-E1A inh	TRPV1 PAM	Sfp PPTase inh	ClpP mod
CCN(CC)CCOC(=O)c1ccc(N/C=C(/C#N)c2nc(-c3ccc4c(c3)OCO4)cs2)cc1	3.5	-1%[15.4 µM]	3%	-5	11	20µM*	.
C[C@H](CO)N1C[C@H](C)[C@@H](CN(C)S(=O)(=O)c2cn(C)cn2)Oc2c(NC(=O)Nc3ccc(C(F)(F)F)cc3)cccc2C1=O	.	-22%	-11%	-24	.	.	-3.0%
COC(=O)CNC(=O)CSc1nc2sc(-c3ccccc3)cc2c(=O)n1-c1ccccc1	.	18%	-16%	-6	.	.	?
CC1=Nc2cc(C(=O)NCCN3CCOCC3)ccc2Sc2c(C)ccc(C)c21	1.4	-7%	0%	.	-5	-1%	0.2%
Oc1ccc(C[C@H]2CNC(=S)N2CC2CCCN2C[C@H](Cc2ccc(O)cc2)N2C[C@H](Cc3ccccc3)N(CCc3ccccc3)C2=S)cc1 (some centres undefined)	.	.	-1%	-10	.	.	-0.9%
COc1ccc(/C=N/NC(=O)c2ccco2)cc1Cn1nc(C)c([N+](=O)[O-])c1C	1.5	-8%[15.4 µM]	-22%	0	-3	14%	0.1%
COc1ccc(-c2csc(NC(=O)C(CC(=O)O)N3CCOCC3)n2)cc1 (centres undefined)	-13	4%	-2%	-3	7	8%	.
CC(=O)c1ccc(OCc2ccccc2)c(C)c1O	-0.1[11.7 µM]	21%	-7%	38	-4	-11%&-22%	1.7%
O=C(NCc1ccccc1)c1ccccc1-c1nc2ccccc2[nH]1	-1.4	-1%[15.4 µM]	.	-9	-14	2%	.
CC(=O)Nc1ccc(Nc2c([N+](=O)[O-])cc(S(C)(=O)=O)cc2[N+](=O)[O-])cc1	1.0	-3%[15.4 µM]	6%	-10	-3	5%	-1.3%
CC(=O)Nc1ccc(Nc2ccc(N3C(=O)CCCC3=O)cc2[N+](=O)[O-])cc1	-0.4	0%	7%	-17	-3	-18%	0.8%
Cc1c(Cl)cccc1NC(=O)c1ccc(OCC(=O)NCc2ccccc2)cc1	2.8	24%	3%	-3	-5	3%	2.3%
CCc1cccc2c(C(=O)CN3C(=O)N(C)C4(CCCCC4)C3=O)c[nH]c12	.	?	4%	-4	17	.	-2.3%
O=C(CSc1nnc(NC(=O)C2CCC2)s1)Nc1ccccc1Br	5.0	-1%[15.4 µM]	8%	-1	12	20%	.
CCOC(=O)c1c[nH]c2c(Cl)c(Cl)ccc2c1=O	4.3	?	-8%	4	9	8%	-1.6%
O=C(NCCCc1ccncc1)C1CCC(=O)N(Cc2cccc(F)c2)C1 (centres undefined)	-0.4	38%	22%	4	-5	16%	0.9%
COc1ccc(N2CCN(C(=O)COc3cccc4ccccc34)CC2)cc1	.	10%	-7%	?	-4	-11%	-6.4%
CCOc1ccc(N=Cc2c(C)[nH]n(-c3nc4ccccc4[nH]3)c2=O)cc1	14	7%	-6%	4	0	-9%	-2.3%
COc1ccc(NC(=S)NCc2ccc3c(c2)OCO3)cc1	4.4	?	5%	-5	-11	12%	.
CCc1cc(=O)oc2cc(C)cc(OCC(=O)N3CCC(C(=O)NC(C)C)(c4ccccc4)CC3)c12	.	25%	1%	2	-6	13%	.
CCOc1ccc(NS(=O)(=O)c2ccc(NC(=S)NC(=O)CC(C)C)cc2)cc1	2.4	-24%	8%	1	-23	25%	-1.2%
Cc1c(-n2c(SCC(C)C)nc3ccccc3c2=O)c(=O)n(-c2ccccc2)n1C	-14	13%[15.4 µM]	-58%	-19	2	17%	1.0%
COc1ccc(S(=O)(=O)N2CCOc3ccccc32)cc1	4.7	-8%	-11%	-19	?	15%	-3.1%
COC(=O)c1cc2occc2n1CC(=O)Nc1ccc(OC)c(OC)c1OC	-3.6	-24%	6%	6	7	16%	-0.9%
CC(C)CN(C(=O)COC(=O)C12CC3CC(CC(Cl)(C3)C1)C2)c1c(N)n(Cc2ccccc2)c(=O)[nH]c1=O	.	16%	-21%	?	-6	.	0.0%
COc1ccc(C(=O)N/N=C/c2sc3ccccc3c2O)cc1	?	-14%[15.4 µM]	-15%	-65*	?	4%	2.1%
COc1ccccc1-n1cnc2cc(NCc3cccs3)ccc21	5.4	8%[15.4 µM]	21%	-9	4	-11%	-2.3%
OC[C@@H]1CCCN1Cc1nc(-c2cccs2)no1	1.8	?	10%	-1	-10	-8%	1.9%
O=C(Nc1ncn[nH]1)c1ccccc1O	3.1	10%	-1%	-10	-13	13%	4.1%
O=C(CSc1ccc2nnc(-c3ccncc3)n2n1)Nc1ccccc1F	0.1	?	13%	-12	8	20%	-12%
O=C(CSCC(=O)c1ccccc1)Nc1ccccc1Cl	-2.5	0%	-1%	5	2	5%	-0.4%
Nc1nonc1-n1nnc(C(=O)N/N=C/c2ccncc2)c1-c1ccccc1	-1.3	-5%[15.4 µM]	?	-9	-5	18%	.
COc1nnc(-c2ccc(N3CCCCC3)c(NC(C)=O)c2)c2ccccc12	-0.9	?	-8%	1	-4	1%	0.0%
CC12CCC(=O)N1C(C(=O)Nc1cccc3ccccc13)CS2 (centres undefined)	-1.0	-3%[15.4 µM]	5%	-2	5	16%	0.1%
Cc1cc(NC(=O)C2C3C(=O)N(CC4CCCO4)C(C(=O)NC(C)(C)C)C34C=CC2(C)O4)no1 (centres undefined)	0.2	11%	17%	0	2	9%	0.7%
CCOC(=O)C1C(=O)CC(C)(O)C(C(=O)OCC)C1c1ccc(N(CC)CC)cc1 (centres undefined)	1.4	-11%	-47%	4	?	15%	-1.5%
CCN1CCN(c2cc(N3CCN(C(=O)c4ccco4)CC3)c3c4c(onc24)-c2ccccc2C3=O)CC1	?	-11%[15.4 µM]	?	?	15	50µM*	.
C/C(=N\NC(=O)c1cc2c(s1)CCC(C)C2)c1ccncc1 (centres undefined)	-0.1	-24%[15.4 µM]	-19%	0	-5	-9%	.
CCN(CC(=O)Nc1ccc(NC(C)=O)cc1)C(=O)C1CCN(C(=O)c2ccccc2C)CC1	.	-12%[15.4 µM]	17%	-5	.	.	.
O=C(Nc1cccc(Cl)c1)OCc1cncs1	5.6	4%	15%	8	-1	19%	-1.2%
NC1=NC(c2cn(-c3ccccc3)nc2-c2cccs2)n2c(nc3ccccc32)N1 (centres undefined)	-0.6	?	1%	-2	-1	45µM*	-2.7%
CC(C)CC(=O)Nc1ncnc2c1C(=O)CC(C)(C)C2	-6.2	-17%	-2%	2	-1	2%	-0.6%
O=C1N2CCSC2=NC1(Nc1ccccn1)C(F)(F)F (centres undefined)	3.4	18%	3%	7	-39	20%	1.0%
O=C1c2ccccc2C(=O)C12OC(c1ccccc1)C1(C(=O)c3ccccc3C1=O)C2c1cccc([N+](=O)[O-])c1 (centres undefined)	0.0	.	.	.	-1	12%	.
O=C(CNC(=O)c1ccc(Br)o1)Nc1cccc(S(=O)(=O)N2CCCC2)c1	.	-27%[15.4 µM]	-12%	-19	3	.	.
CC(=O)Nc1ccc(N2CCOCC2)c(C(=O)Nc2cccc(C)c2)c1	1.4	-35%	3%	4	-1	6%	?
COC(=O)CNC(=O)C1CCN(S(=O)(=O)c2cccc3nsnc23)CC1	.	?	-14%	.	-2	15%	1.0%&1.3%
COc1cccc(CN(C)C(=O)CC23CC4CC(CC(C4)C2)C3)c1OC	5.2	8%[15.4 µM]	-17%	2	-3	10%	-1.4%
CC(C)NC(=O)c1ccc2c(=O)n(CC3CCCO3)c(=S)[nH]c2c1 (centres undefined)	2.1	5%[15.4 µM]	-13%	-13	143*	-18%	4.1%
